# High-throughput results (PubChem)
# PrP UTR inh: inhibition of PrP 5' UTR reporter expression. cell-based PrP 5' UTR mRNA reporter, plate reader. inhibition, % (concentration not given with the values). actives 0.35% (n = 340,000). AID 488862;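 active = every replicate at 50% or more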;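 note: 0 = median of the neutral control wells; tested in H4 reporter cells; numbers are from one replicate; inactives centre near -14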
# Sa ugtP lethal: compounds lethal to S. aureus RN4220 ugtP deletion mutant. actives 0.54% (n = 330,000). AID 1259309. OD600 growth, 16 h; some inactives read as strong as hits. growth inhibition, % (test concentration not listed);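 active = z-score under -3 and OD600 up to 0.15 on both plates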;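 note: plate controls were untreated wells for no effect and antibiotic for full effect; wells of about 80 µL received 100 nL stock; the first replicate is given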
# Sa RN4220 lethal: kills Staphylococcus aureus RN4220; S. aureus RN4220 growth, OD600, 16 h; inhibition, % (concentration not given with the values); actives 0.33% (n = 330,000);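 active = z-score of -3 or lower and OD600 up to 0.18 on both plates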;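 note: plate controls were untreated cells for no effect and reference antibiotic for full effect; stock transfer was 100 nL into about 80 µL; one replicate is shown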
# Mtb hypoxia rep: Mtb hypoxia fluorescent reporter inhibition; M. tuberculosis hypoxia-regulated fluorescent reporter, fluorescence; fluorescence inhibition, % (concentration not given with the values); actives 0.1% (n = 300,000);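 active = 35 to 45% if threefold the growth effect, above 45% if 1.5-fold the growth effect; inactive = the rest, general growth blockers included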;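 note: wells of about 50 µL received 100 nL stock; 0% = vehicle wells and 100% = reference inhibitor wells; whole bacteria with a GFP reporter of the hypoxia response; strong numbers were not always called active; many hits fall short of the cut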
# Bead autofluor: flagged as autofluorescent in microsphere protease counterscreen; compound autofluorescence counterscreen, microsphere flow cytometry; active compounds read high; actives 3.1% (n = 360,000); fluorescence intensity (concentration not given with the values);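 active = at least 3 SD above the mean of all compounds, about 16000 in these data; inconclusive = too few beads counted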;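 note: 100 nL of 1 mM stock went into each well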
# BJeLR lethal: BJeLR cell viability loss. BJeLR (HRASV12) viability, CellTiter-Glo ATP luminescence, 48 h; reference of the scale not given here. actives 0.17% (n = 300,000). inhibition, % (concentration not given with the values). AID 1554;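 active = replicate mean above 50%; inconclusive = above 50% but judged a plate artefact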;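 note: 50 nL library stock added to about 25 µL; numbers are from one replicate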
# Mtb hypoxia rep growth: second read-out of Mtb hypoxia rep, no call of its own (marks repeat the call); growth inhibition, %; measured here: M. tuberculosis growth (absorbance);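 0% = vehicle and 100% = reference antibiotic; read after six days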
# Active calls of the source: *; ? = inconclusive; nt = not tested or not shown.
# Fields – PrP UTR inh	Sa ugtP lethal	Sa RN4220 lethal	Mtb hypoxia rep	Mtb hypoxia rep growth	Bead autofluor	BJeLR lethal
NC(=O)CC(NC(=O)c1cccc(Br)c1)c1ccc(N2CCC(N3CCCCC3)CC2)c([N+](=O)[O-])c1 (centres undefined)
  -20	5	3.5	21	8	3528	-3
CCOC(=O)c1c(C)nc(SC)c(C#N)c1-c1ccccc1
  -10	14	-2.9	1	8	2570	-7
CCOC(=O)c1oc2ccccc2c1CN1CCCCC1
  -22	4	2.9	13	4	3108	7
COc1ccc(Nc2nc(NCCO)nc(OC)n2)cc1
  -14	1	4.1	-8	-8	3278	-4
Cc1csc(N/N=C/c2ccc([N+](=O)[O-])cc2)n1
  -37	nt	nt	nt	nt	3755	14
CS(=O)(=O)N(CC(N)=O)Cc1ccc(Cl)cc1
  -31	4	6.4	5	2	6461	-3
COC(=O)c1c(C)[nH]c(C(=O)CN2CCOCC2)c1C
  -139	1	3.8	11	2	2484	-3
O=C(CSc1nc(-c2ccc(F)cc2)cs1)NCCN1C(=O)CSC1=O
  -13	3	3.1	-7	-9	4120	2
COc1cc2c(cc1OC)C(c1cc(C)ccc1C)CC(=O)N2 (centres undefined)
  5	1	4.2	11	2	3779	7
CCOCC(=O)Nc1ccc([N+](=O)[O-])cc1C
  4	10	4.2	8	12	2140	4
CCCCCN1C/C=C\C(c2ccc(OC)cc2)N(Cc2ccc(F)cc2)C(=O)C1 (centres undefined)
  -18	nt	nt	nt	nt	4103	5
COc1ccc(/C=N/NC(=O)Nc2cccc3nsnc23)c(OC)c1
  -2	nt	nt	nt	nt	2470	1
CCC(C)N(C(=O)COC(=O)CSc1ccc(C)c(C)c1)C1CCS(=O)(=O)C1 (centres undefined)
  -6	2	4.8	5	5	nt	nt
CC1CC=CC2C1C(=O)N(Cc1ccccc1)C2c1ccc2ccccc2c1C=Cc1ccccc1 (centres undefined)
  nt	-5	-6.7	3	-1	nt	nt
Nc1ccc(NC(=O)c2ccco2)c(Cl)c1
  -28	5	5.5	4	1	2397	-1
Cc1ccc(CSCC(=O)N(C)CC(=O)Nc2ccccc2Cl)cc1
  -13	-2	3.2	4	4	?	2
CCC(=O)NC1=C(Nc2ccc(N)cc2)C(=O)c2ccccc2C1=O
  -39	15	25	12	-5	2955	4
O=C(COc1cccc2cccnc12)N1CCc2ccccc21
  -29	-1	0.6	1	-7	1999	-5
COc1ccc(/C(C)=N/Nc2nc(C)c(C(C)=O)s2)cc1
  -12	nt	nt	nt	nt	4145	9
Cc1ccccc1Nc1c(F)c(F)c(F)c(F)c1C(=O)O
  -9	4	29	3	8	4296	-3
O=C(c1nn(-c2ccccc2)c(=O)c2ccccc12)N1CCN(c2ncccn2)CC1
  -15	0	-0.5	-16	-18	4354	-6
Cn1nnnc1SCC(=O)NC(C)(C)C
  -13	4	4.6	nt	nt	4111	nt
COC(=O)c1ccc(COC(=O)CNC(=O)C2CCCCC2)cc1
  -14	0	-3.6	9	7	2872	nt
CC(Sc1nnc(-c2ccccc2F)n1C1CC1)C(N)=O (centres undefined)
  4	1	-0.1	-6	-6	4902	5
C/C(=N\NC(N)=S)c1ccc(Cl)s1
  -13	nt	nt	nt	nt	2146	5
Cn1nc(C(F)(F)F)c2cc(NC(=O)OCC(C)(C)C)sc21
  -10	-16	-7.0	22	22	nt	-2
COCCN1CCN(Cc2nc(Cc3ccc(OC)c(OC)c3)no2)CC1
  -26	5	16	11	8	3708	7
O=C(COc1ccc2ccccc2c1)Nc1cccc2cccnc12
  -24	22	15	7	4	8913	-2
c1ccc2[nH]c(CSc3ncnc4c3oc3ccccc34)nc2c1
  -100	-28	3.0	-9	4	10595	-14
S=c1[nH]nc(CCc2ccc(Cl)cc2)o1
  -8	7	7.0	20	16	2531	2
Cc1ccc(C(=O)NN=Cc2c[nH]c3ccccc23)o1
  nt	0	-0.6	-3	14	nt	nt
CC(=O)Nc1nnc(CCN2CCCCC2)s1
  -11	11	4.2	-4	1	nt	10
OCCC1CN(Cc2ccsc2)CCN1C1CCCC1 (centres undefined)
  -15	-66	10	3	11	4300	4
O=C(NCC(F)(F)F)Nc1ncccn1
  -2	4	2.2	nt	nt	4093	-5
COc1ccc(CC(=O)N(C)Cc2ccc(C(C)(C)C)cc2)cc1S(=O)(=O)N1CCOCC1
  -5	0	3.1	7	12	5753	8
Nc1c(S(=O)(=O)c2ccccc2)cnc2c(-c3ccc(F)cc3)cnn12
  -9	4	0.2	2	0	15012	1
Nc1ncnc2c1nc(Br)n2C1OC2COP(=O)(O)OC2C1O (centres undefined)
  nt	-1	5.8	-10	-3	nt	nt
Cc1c(C(=O)NCc2ccccc2)oc2ccc(S(=O)(=O)N3CCCC3)cc12
  -3	-7	3.3	8	4	4314	10
CC(=O)N1c2ccc(S(=O)(=O)NCc3ccco3)cc2CC1C (centres undefined)
  -15	5	4.2	5	9	5291	-4
CC(NC(=O)NC1CCCCC1)C(c1cccs1)N1CCN(C)CC1 (centres undefined)
  -9	8	-2.0	14	7	5906	-5
COc1cc(C(=O)Nc2ccc3c(c2)Cc2ccccc2-3)cc(OC)c1OC
  -27	-1	-1.7	-1	-13	2760	1
CCc1cc2c(SCC(=O)c3ccccc3)ncnc2s1
  -38	7	13	nt	nt	3179	-9
CCN(CC)C(=O)CSc1nc2c(sc(=S)n2Cc2ccco2)c(=O)n1-c1ccccc1
  -7	5	-4.8	2	8	20976*	4
O=C(NNS(=O)(=O)c1ccccc1)c1cccc(F)c1
  -19	2	4.3	9	-2	3583	-20
COC(=O)c1cccc(NC(=S)NCc2ccco2)c1
  -20	1	4.2	15	11	2284	3
COCCN(C(=O)CC1CCCC1)c1c(N)n(CC(C)C)c(=O)[nH]c1=O
  -16	2	-0.6	-3	2	3675	nt
O=C1c2cccc(Cl)c2C(=O)N1c1ccccn1
  nt	1	1.8	5	12	?	-2
Cc1ccc(N(C)C(=O)c2ccc3c(Cl)c4c(nc3c2)CCC4)cc1C
  8	37	7.8	0	7	4250	-2
CC(=O)Nc1c(F)cc(Br)cc1F
  -21	-2	3.5	-6	-2	3388	12
COCCn1c(SCC(=O)N2CCCCC2)nc2c(c1=O)SCC2
  -23	1	-3.4	-1	-7	?	0
CCC(C)(C)NC(=O)c1cc(C(=O)OC)cc([N+](=O)[O-])c1
  -24	6	4.2	9	10	15042	-1
COc1ccc(NC(=O)Cn2nc(C(=O)O)c3ccccc3c2=O)cc1S(=O)(=O)N1CCCCC1
  -17	4	3.3	4	7	2857	nt
COc1ccc(Cl)cc1NC(=O)CSc1cccc[n+]1[O-]
  -14	1	-1.1	-1	17	3382	nt
Cc1cc(SCC#N)nc2ccccc12
  -17	3	-9.4	7	-6	3080	-31
O=C(C(=O)N1CCc2ccccc2C1)c1cn(CC(=O)N2CCCC2)c2ccccc12
  -10	5	2.4	9	8	2660	9
Cc1ccc(SCCC(=O)NCCSCc2ccccc2C)cc1
  4	-15	0.6	4	-8	3271	-7
CC1CCN(c2nnc(NC(=O)Cn3c(=O)oc4ccccc43)s2)CC1
  -19	2	-2.4	1	8	5234	2
NC(=S)N/N=C/c1ccccc1OC(=O)c1cc2ccccc2oc1=O
  -8	nt	nt	nt	nt	5495	-1
CC(C)(C)CC(=O)Nc1ccccc1N1CCN(c2ccccc2)CC1
  -13	1	5.4	4	0	3304	-4
CCn1c(SCC(=O)NCC2CCCO2)nc2c(c1=O)SCC2 (centres undefined)
  -4	3	0.2	8	13	5562	-18

# Going on with the list:
# Fields – PrP UTR inh	Sa ugtP lethal	Sa RN4220 lethal	Mtb hypoxia rep	Mtb hypoxia rep growth	Bead autofluor	BJeLR lethal
COc1ccc(CCN2CC(C(=O)NCc3cnn(C(C)C)c3)CCC2=O)cc1 (centres undefined)
  -7	2	4.4	4	-3	6357	1
CC(NC(=O)CCNC(=O)c1ccc(Br)cc1)c1ccc(S(N)(=O)=O)cc1 (centres undefined)
  -2	4	1.0	0	-2	4275	4
COc1ccc(NC2CCCN(C(=O)c3ccc4[nH]c(C)c(C)c4c3)C2)cc1OC (centres undefined)
  -26	2	2.2	-5	-3	5287	-4
CCSC1=NCCN1S(=O)(=O)c1ccc(F)cc1
  -16	9	5.8	-10	-3	2790	4
Nc1nc2sc3c(c2cc1C(=O)N1CCOCC1)CCCC3
  -20	7	6.8	13	11	2844	5
COC(=O)c1ccccc1S(=O)(=O)N1CCC(C(=O)OCC(=O)c2ccccc2OC)CC1
  -24	6	-1.2	4	4	4475	-17
Cc1ccc2nc(C)cc(OCC(=O)O)c2c1
  -16	2	7.0	11	13	3842	6
COc1ccc(-c2cc3ccc(OCC(N)=O)cc3oc2=O)cc1OC
  3	2	1.2	1	0	4386	-1
CC(=O)Nc1ccc(CN2CCc3c([nH]c4ccccc34)C2c2ccccn2)cc1 (centres undefined)
  -18	2	4.2	8	-9	2108	1
COc1ccc(/C=N/NC(=O)C2C(C=C(Cl)Cl)C2(C)C)c(OC)c1 (centres undefined)
  -24	nt	nt	nt	nt	4459	-2
CCn1cc(S(=O)(=O)CC(=O)Nc2cccc(C)c2)c2ccccc21
  -8	10	-1.9	7	8	5279	4
COc1ccc(-c2ccc(CNCCCN3CCOCC3)o2)cc1Cl
  -16	4	5.8	nt	nt	3391	0
CCC(C)(C)NC(=O)c1ccc(Br)o1
  -11	2	3.9	nt	nt	2158	7
O=C(c1cccc(C(F)(F)F)c1)C1CCCN(Cc2ccccc2O)C1 (centres undefined)
  -5	nt	nt	nt	nt	4505	11
CCn1ccnc1CN(C)Cc1cn(-c2ccc(C)cc2)nc1-c1ccc(F)cc1
  -11	7	-2.7	-1	6	2127	-6
Cn1c(=O)cc(OCCCC(=O)N2CCN(c3ccccc3)CC2)c2ccccc21
  2	-1	-1.9	-4	6	14708	-10
CC1(C)Cc2cccc(OCC(=O)NCCc3ccccc3)c2O1
  -31	-3	6.8	14	2	4254	0
O=C(NNC(=O)c1ccc(Cl)c(Cl)c1)c1ccncc1
  nt	-7	0.7	-3	2	5939	1
COc1ccc(-c2cc(C(=O)N3CCOCC3)c3ccccc3n2)cc1OC
  6	-1	0.0	-3	2	5935	1
O=C(CCN1C(=O)/C(=C\C=C\c2ccccc2)SC1=S)Nc1ccccc1C(=O)O
  -6	26	17	8	7	4940	2

# 3 compounds from above, ordered by SMILES length, high to low.
# Fields – PrP UTR inh	Sa ugtP lethal	Sa RN4220 lethal	Mtb hypoxia rep	Mtb hypoxia rep growth	Bead autofluor	BJeLR lethal
COc1ccc(/C=N/NC(=O)C2C(C=C(Cl)Cl)C2(C)C)c(OC)c1 (centres undefined)
  -24	nt	nt	nt	nt	4459	-2
O=C(NNC(=O)c1ccc(Cl)c(Cl)c1)c1ccncc1
  nt	-7	0.7	-3	2	5939	1
S=c1[nH]nc(CCc2ccc(Cl)cc2)o1
  -8	7	7.0	20	16	2531	2

# The list goes on:
# Fields – PrP UTR inh	Sa ugtP lethal	Sa RN4220 lethal	Mtb hypoxia rep	Mtb hypoxia rep growth	Bead autofluor	BJeLR lethal
Cc1cc2c(c(=O)n1Cc1cccnc1)C(Cc1ccccc1)C(C#N)=C(N)O2 (centres undefined)
  0	-4	-12	9	3	2939	1
O=[N+]([O-])c1cc(-c2n(-c3ccccn3)c3ccccc3[n+]2-c2ccccn2)ccc1Cl
  -23	12	5.0	5	10	4563	-1
CC(=O)Nc1ccc2nc(NC(=O)COc3ccc([N+](=O)[O-])cc3)sc2c1
  -10	-12	-2.6	-3	13	3330	-4
COc1ccc(-c2csc(Nc3cc(C)ccn3)n2)cc1OC
  -58	0	6.7	8	-2	4175	16
O=C(O)C1CCCN1c1ncnc2c1oc1ccccc12 (centres undefined)
  -14	-4	4.7	8	6	11382	10
O=C(CN1CCC(c2nc3ccccc3s2)CC1)N1CCCCC1
  -9	0	1.0	8	0	5450	2
CC1(C)C[C@H]2C3=CCC4[C@@]5(C)CC[C@H](O)[C@](C)(CO)C5CC[C@@]4(C)[C@]3(C)C[C@@H](O)[C@@]2(CO)[C@@H](O)[C@@H]1O (some centres undefined)
  -8	2	3.7	nt	nt	5645	nt
COC(=O)c1c(-n2c(C)cc(C=O)c2C)sc2c1CCCC2
  -29	-2	2.0	10	4	9597	-4
Cc1cccc(NC2(C(F)(F)F)N=C(c3ccccc3)NC2=O)n1 (centres undefined)
  -15	-1	5.3	0	8	9830	3
Cn1c(=O)c2c(ncn2CC(O)CNc2cccc(Cl)c2)n(C)c1=O (centres undefined)
  -33	2	2.0	-2	5	4661	9
